Bioassay records from PubChem.
Sa helicase inh = S. aureus DNA helicase inhibition; purified S. aureus helicase, fluorescence unwinding assay; about half of the hits fall short of the stated cut; 120,000 compounds, 0.05% hits; AID 485395; inhibition, %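 (tested at about 80 µM)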;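 active = both duplicates at 50% or more, or one of them with a favoured structure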;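 also: 0% = mean of negative control wells and 100% = mean of positive control wells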
MgrA-DNA mod = modulators of Staphylococcus aureus MgrA DNA binding; fluorescence polarization; AID 602314; inhibition, %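 (about 10 µg/mL by stock and volumes)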; 84,000 compounds, 0.13% hits;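 active = above 50% in either of two replicates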;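 also: 0% = protein plus DNA without compound and 100% = DNA alone without protein; higher means less MgrA bound to DNA so lower polarization; one replicate is shown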
Active calls of the source: *; . = no result given; & = joins results of further samples.

SMILES	Sa helicase inh	MgrA-DNA mod
CCOC(=O)C(C)Sc1nnc(-c2ccc(F)cc2)o1 (configuration not stated)	16	-0.7
Cc1nc(C)c(-c2nnc(-c3ccc(Cl)cc3)o2)s1	.	0.2
COc1ccc(CNC(=O)COc2ccc(C#N)cc2)cc1	12	-0.1
Cc1sc(/N=C/c2ccco2)c(C#N)c1C	-4	.
Cn1c(SCCSc2cccc(C(F)(F)F)c2)nnc1-c1ccco1	0	.
O=c1c2ccc(-c3n[nH]c(=S)o3)cc2nc2n1CCCCC2	8	.
COC(OC)c1cc(=O)[nH]c(SCC(=O)c2ccc(C)cc2)n1	.	5.3
CCc1ccc(-n2c(=O)oc3ccc(Cl)cc3c2=O)cc1	7	-0.2
Cc1noc(C)c1C(=O)OCC(=O)N1CCCCC1C (configuration not stated)	-7	.
CCS(=O)(=O)N1CCN(c2cnn(-c3ccccc3)c(=O)c2Cl)CC1	22	0.1
CSc1ncc(C(=O)NCc2cccc(C)c2)c(C)n1	-37	.
O=C1CCc2cc(S(=O)(=O)N3CCCC3C(=O)N3CCN(c4ccc(Cl)cc4)CC3)ccc2N1 (configuration not stated)	9	.
COc1cc(CCc2cc(OC)c(C)cc2OC)c(OC)cc1C	.	-0.6
O=C(Nc1ccccc1)C1C2C=CC(C2)C1C(=O)Nc1ccccc1 (configuration not stated)	-3	-3.9
CC(Oc1ccccc1)C(=O)N1CC(=O)Nc2ccc(F)cc2C1c1ccccc1 (configuration not stated)	17	.
CCn1cc(-c2ccc3ccccc3n2)c(=S)c2ccccc21	4	1.2
O=C(CSc1ncn[nH]1)c1ccc(Cl)cc1	-17	2.8
CN(C)c1ccc(C2=CC=CC(=C3C=CC(=[N+](C)C)C=C3)O2)cc1	74*	20
Cc1ccc(CNC(=O)CN2CCC(n3nnc4cc(C)ccc43)CC2)cc1	-4	-0.7
COC(=O)c1sccc1OC(=O)c1cc2ccccc2oc1=O	.	2.8
COc1ccc(C(=O)Nc2nc3c(s2)CC(C)CC3)c(OC)c1 (configuration not stated)	22	.
CC(C)(C)OC(=O)NC1CCN(S(=O)(=O)c2ccc3c(c2)OCCO3)CC1	-12	.
COc1cc(/C=C2\SC(N(C)c3ccc(O)cc3)=NC2=O)ccc1O	-110	.
COc1ccc(/C=C/C(=O)N(C)c2ccccc2C(=O)O)cc1	-4	.
Cc1nn(-c2ccccc2)c2sc(C(=O)OCCN3c4cccc5cccc(c45)S3(=O)=O)cc12	-7	.
N#Cc1ccc(Cl)cc1NC(=O)CSc1nnc(-c2c[nH]c3ccccc23)n1CC1CCCO1 (configuration not stated)	9	.
CN(C)S(=O)(=O)c1ccc(S(=O)(=O)N(Cc2ccccc2F)C2CC2)cc1	11	-1.7
CC(C)(C)c1cc(-c2ccccc2)n[nH]1	6	2.8
COc1ccc(S(N)(=O)=O)cc1C(=O)NCC1CCCO1 (configuration not stated)	-12	.
Cc1ccn(CCC(=O)NCCN2CCc3ccccc3C2)n1	5	.
Cc1c(NC(=O)c2nn3c(C(F)(F)F)cc(-c4ccco4)nc3c2Cl)c(=O)n(-c2ccccc2)n1C	.	1.2
CS(=O)(=O)N(CCCCn1c2ccccc2c2ccccc21)Cc1ccco1	12	.
CC(O)c1nc2ccccc2n1CCc1ccccc1 (configuration not stated)	-3	.
Cn1c2c(c3ccccc31)/C(=N/OC(=O)C1CCCCC1)CCC2	.	0.0
Cc1cc(C)n(C(CC(=O)O)C(=O)O)n1 (configuration not stated)	6	-5.8
Cc1cc(C)c(C(N)=O)c(SCC(=O)N2CCc3ccccc3C2)n1	-5	.
C=CCN=c1scc(-c2ccco2)n1/N=C/c1c[nH]c2ccccc12	-4	.
O=C(c1cncc(NS(=O)(=O)c2ccc(Cl)cc2)c1)N1CCCc2ccccc21	-15	-0.4
O=C(CSc1nncs1)Nc1ccccc1	-6	.
CCOC(=O)/C(C#N)=C\c1cc2ccc(OC)cc2[nH]c1=O	-53	30

Another view of some results above.
Molecule | Sa helicase inh | MgrA-DNA mod
Cc1nn(-c2ccccc2)c2sc(C(=O)OCCN3c4cccc5cccc(c45)S3(=O)=O)cc12 | -7 | .
N#Cc1ccc(Cl)cc1NC(=O)CSc1nnc(-c2c[nH]c3ccccc23)n1CC1CCCO1 (configuration not stated) | 9 | .

(further entries)
SMILES	Sa helicase inh	MgrA-DNA mod
Cc1sc(Nc2ccccc2)nc1-c1ccccc1	5	.
COC(CNC(=O)c1cccc(NS(=O)(=O)c2ccc(C)cc2)c1)OC	-14	0.2
CNc1nc(OC)nc(N(C)C)n1	12	-3.2
NC1=NC(=O)/C(=C/c2ccccc2OCc2ccccc2Cl)S1	.	-0.4
S=C(NCC1CCCO1)Nc1ccc(N2CCCCC2)cc1 (configuration not stated)	-18	.
Cc1nn2c(nc(Cl)c3ccccc32)c1Cl	8	.
CC(Sc1nc2ccccc2n1CCC#N)C(=O)N1CCCC1 (configuration not stated)	6	.
O=C(CSc1ccccc1)OCc1nc2ccsc2c(=O)[nH]1	5	.
Cc1sc(NC(=O)c2ccccc2)c(C(c2cccs2)N2CCN(C)CC2)c1C (configuration not stated)	-3	.
O=C(OCc1nc2ccccc2c(=O)[nH]1)c1ccc(S(=O)(=O)N2CCCC2)cc1	3	.
O=C(Nc1cccnc1)NC1CC(=O)N(c2ccccc2)C1 (configuration not stated)	1	.
Cc1occc1-c1nnc(SCC(=O)N(C)C)o1	-13	.
Cc1sc(NC(=O)c2ccco2)c(CN2CCc3ccccc3C2)c1C	-20	.
Cc1ccc(C)c(C(=O)CSc2nc3ccccc3o2)c1	1	-0.2
CCc1sc(-c2nnc(CSc3nnc(-c4ccncc4)n3C)o2)cc1C	-11	.
COC(=O)c1ccc(C(=O)OC)c2c(C(=O)OC)ccc(C(=O)OC)c12	1	3.0
Cc1nnc(SCC(=O)n2c3ccccc3c3ccccc32)s1	-4	0.9
CCC(=O)Nc1nnc(C)s1	14	.
COc1ccc(CCNC(=O)c2n[nH]c(=O)c3ccccc23)cc1OC	-11&12	1.5
O=C1NC2(CCc3ccccc32)C(=O)N1CN1CCN(S(=O)(=O)/C=C/c2ccccc2)CC1 (configuration not stated)	13	.

2 entries drawn at random from the list so far:
SMILES	Sa helicase inh	MgrA-DNA mod
CCC(=O)Nc1nnc(C)s1	14	.
Cc1nn2c(nc(Cl)c3ccccc32)c1Cl	8	.

Compound profiles, from the list above.
`COc1ccc(CCNC(=O)c2n[nH]c(=O)c3ccccc23)cc1OC` in the list: Sa helicase inh = -11&12; MgrA-DNA mod = 1.5
`CC(Sc1nc2ccccc2n1CCC#N)C(=O)N1CCCC1` (configuration not stated) in the list: Sa helicase inh = 6; MgrA-DNA mod = .
`Cc1occc1-c1nnc(SCC(=O)N(C)C)o1` in the list: Sa helicase inh = -13; MgrA-DNA mod = .

(next part)
SMILES	Sa helicase inh	MgrA-DNA mod
Nc1nc(SCC(=O)c2cccs2)n[nH]1	-19	.
CCn1c(=O)c2ccccc2n2c(=S)[nH]nc12	-8	.
CCOC(=O)c1cc(C)n(CC2CCC(C(=O)N3CCCC3)CC2)c1C (configuration not stated)	15	-0.8
CC(=O)Oc1cc(C)cc2oc(=O)cc(-c3ccccc3)c12	8	.
Cc1ccc(SCCSc2ncccn2)cc1	7	2.9
Cc1oc(-c2ccccc2)nc1C(=O)OCc1cc(=O)n2ccsc2n1	-13	.
O=C1c2cccnc2C(=O)N1CCc1ccc(S(=O)(=O)NC2CCCCCC2)cc1	4	.
CCOC(=O)C1CCN(S(=O)(=O)c2cc(Br)cc3c2N(C(C)=O)C(C)C3)CC1 (configuration not stated)	4	.
COc1ccccc1C1CCN(C(=O)c2ccc(F)cc2)CC1	.	-0.8
Cc1ccc(NC(=O)C23C(=O)Oc4ccccc4C2C3(C)C(=O)c2ccccc2)cc1 (configuration not stated)	-11	.
COc1ccc(-n2nc(C(=O)NCC(=O)NCC3CCCO3)c3ccccc3c2=O)c(OC)c1 (configuration not stated)	17	.
O/N=C1\CCC\C1=C/c1ccco1	-12	3.9
Cc1nc(-c2ccc([N+](=O)[O-])cc2)c(-c2ccccc2)o1	.	1.7
O=c1cc(-c2c(F)c(F)c(F)c(F)c2F)oc2c(F)c(F)c(F)c(F)c12	4	.
CCOC(=O)c1ccoc1COC(=O)/C=C/c1ccc(SC)cc1	25	.
CC[n+]1c(C)sc2ccc(CC(=O)[O-])cc21	-12	-2.8
Nc1nccnc1C(=O)O	3	.
COc1ccccc1C(=O)N/N=C/c1c(O)c(I)cc2oc3c(c12)CCCC3	-4	.
Cc1cc(C)c(CN)c(=O)[nH]1	-7	.
Cc1cc(C)nc(SCCc2ccncc2)n1	-1	-6.5
Cc1noc(C)c1C(=O)N(CC(=O)Nc1ccccc1Br)Cc1ccco1	8	.
Cc1cc(C)nc(N(C#N)Cc2ccccc2Cl)n1	7	.
O=C(Cn1c2ccc(F)cc2c2nc3n(c(=O)c21)CCS3)NC1CCCC1	-3	-2.0
CCC(Sc1nnc(-c2c[nH]c3ccccc23)n1CC)C(=O)OC (configuration not stated)	-3	.
CSc1nc(-c2ccccc2F)c(C#N)c(=O)n1C	0	3.5
O=S(=O)(CCN1CCN(C(c2ccccc2)c2ccccc2)CC1)C(F)(F)F	-16	-3.7
N#CC1=C(N)SC(N)=C(C#N)C1c1ccccc1	.	10
Cc1nc2ccc(Oc3ccc4nc(C)[nH]c4c3)cc2[nH]1	-10	.
CCC(=O)Nc1c(C(=O)N2CCc3ccccc3C2)cnn1-c1ccc(C)c(C)c1	22	-0.1
CCn1cc(/C=C2/C(=O)N(c3ccccc3)c3ccccc32)c2ccccc21	-15	27
CC1CCCCC1NC(=O)c1ccc(F)cc1 (configuration not stated)	9	.
Cn1c(O)c(C=NCCc2c[nH]c3ccccc23)c(=O)[nH]c1=S	0	-0.2
COc1ccc(CNC(=O)C(OC(=O)c2ccc(Cl)nc2)c2ccccn2)cc1 (configuration not stated)	5	-0.4
CC(C)(C)/C=N/NC(=O)C1CC1	-14	.
O=C(c1ccc(NC2=NC3CS(=O)(=O)CC3S2)cc1)N1CCN(c2ccccc2)CC1 (configuration not stated)	20	.
O=C1C2C3C=CC(O3)C2C(=O)N1c1ccccc1C(F)(F)F (configuration not stated)	18	.
O=C1CN(C(=O)CC2c3ccccc3-c3ccccc32)CC(=O)N1	9	-4.0
CC(=O)N1CCc2c(sc3c2c(=O)n(-c2ccccc2)c(=O)n3CC(=O)Nc2cc(C)[nH]n2)C1	-14	.
Cc1ccc(Cn2nc(C)c(/C=C/C(=O)OCc3nc4c(oc5ccccc54)c(=O)[nH]3)c2Cl)cc1	-3	.
COc1ccc(OC)c(C2N(Cc3ccccc3C)CCN2Cc2ccccc2F)c1 (configuration not stated)	21	3.3
CNC(=O)CN1C(=O)CCCc2ccccc21	5	.
Cn1c(C(N)=O)cc2ccccc21	-9	.
Cc1ccc(C(=O)N/C(=C\c2ccccc2)C(=O)Nc2c(C)n(C)n(-c3ccccc3)c2=O)cc1	0	3.2
COCCNc1c(-c2ccccc2)nc2cc(C)ccn12	13	-3.2
COc1ccc(-n2ncc(NC(=O)Nc3ccc4c(c3)OCCCO4)c2C)cc1	.	2.2
N#Cc1nccnc1Oc1ccc(Cl)cc1	-15	.
CC1=CC(=O)c2ccccc2C1=O	.	-2.5&3.7
COc1ccc(C2Nc3ccccc3C(=O)N2c2ccccc2)cc1CSc1ccccn1 (configuration not stated)	.	-0.5
CC1(C)CC(/C=C/c2ccccn2)=Cc2c1sc(N)c2C#N	1	9.3
COc1cccc(NC(=S)N(Cc2ccco2)C(C)c2ccco2)c1 (configuration not stated)	6	.
CNC(=O)C(C)n1sc2ccccc2c1=O (configuration not stated)	4	0.0
COCCOC(=O)C1=C(C)NC2=C(C(=O)CC(c3ccc(OC)cc3)C2)C1c1ccc(Br)cc1 (configuration not stated)	.	1.6
COc1ccc(N2C(=O)CCC(C(=O)O)C2c2ccccc2)cc1 (configuration not stated)	-18	.
NC(=O)c1cccc(C(N)=O)c1	3	0.3
COc1ccccc1/C=C1\CC/C(=C\c2ccccc2OC)C1=O	11	0.0
Cc1cc(Cl)ccc1OC1C(=O)N(c2cccc(C(F)(F)F)c2)C1c1ccc2c(c1)OCO2 (configuration not stated)	12	4.5
CCCn1nnc(NC(=O)/C=C/c2ccccc2)n1	0	.
CC(Sc1nncn1-c1ccccc1)C(=O)N1CCc2ccccc21 (configuration not stated)	-6	.
Cc1nnnn1CC(=O)Nc1ccc(F)cc1	13	-0.3
Cc1ccn2c(=O)cc(COc3ccc4c(c3)OCO4)nc2c1	-10	.

Reformatted with two lines to a compound: part of the list above
Results follow in this order: Sa helicase inh | MgrA-DNA mod
COc1cccc(NC(=S)N(Cc2ccco2)C(C)c2ccco2)c1 (configuration not stated)
  6 | .
CNC(=O)C(C)n1sc2ccccc2c1=O (configuration not stated)
  4 | 0.0

Next part
SMILES	Sa helicase inh	MgrA-DNA mod
COC(=O)COc1ccc2cccc(-n3cnnn3)c2c1	-11	0.5
COC(=O)c1ccccc1N1C(=O)C=CC1=O	.	-7.1
CCC1(C)Cc2ccccc2-c2nc(NCCO)n(-c3ccccc3)c(=O)c21 (configuration not stated)	17	.
Cc1nn(Cc2cccc3ccccc23)c(C)c1NC(=O)C1CC1c1ccccc1 (configuration not stated)	15	-1.4
COc1cccc(N(CCN2C(=O)c3ccccc3C2=O)C(=O)C(C)C)c1	-1	.
CCCN(CCC)C(=O)c1cc2c(=O)[nH]c3ccc(C)cc3c2s1	15	.
Cc1cc(C)n(-c2ccc(Cl)c(C(=O)NN3C(C)CCCC3C)n2)n1 (configuration not stated)	6	.
Nc1cc(-c2ccccc2)nn1CCO	-10	.

An excerpt; the hit share may differ from the screen's.
